# Rango release inh: qHTS Assay for Inhibitors of RanGTP induced Rango (Ran-regulated importin-beta cargo) - Importin beta complex dissociation; Snurportin-1 (Homo sapiens) + GTP-binding nuclear protein Ran (Homo sapiens) + Importin …; Biochemical FRET Rango-importin beta, RanGTP-induced dissociation; Potency, µM (doses to about 46.1 µM), for inactives: at the highest dose activity change, negative = inhibition; 0.071% of 340,000 active; active means falling FRET ratio curve, often poorly fitted, with flat reads before Ran was added; inconclusive means other falling curves, or compound fluorescence or quenching; inactive means flat or rising ratio curve;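 note: potency is the fitted concentration of half-maximal effect; % of control where 0% means no effect; nearly all actives have a fitted effect of over 45% in size; -100% = wells without RanGTP and RCC1; the record marks most hits as doubtful in a second field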
#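 Quantitative HTS using a FRET biosensor: 0.1 uM Rango, 0.25 uM importin beta, 0.6 uM Ran, 2 mM GTP, 0.2 uM RCC1 final, PBS with DTT, Tween-20 and BSA. Post-read taken 45 min after Ran addition.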
# miR-21 reporter: qHTS Assay for Modulators of miRNAs and/orActivators of miR-21. Potency, µM (titrated, usually from 38.3 µM), inactives show top-dose reporter change, positive = more light. HeLa miR-21 FLuc reporter, luciferase, 48 h. 340,000 tested, under 10 active; active = well fitted rising curve with a large enough effect; inconclusive = small, poorly fitted or top-dose-only effect; inactive = no such curve, though single readings can be large or run the other way;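 note: % of control where 0% means no effect; miR-21 action dims this reporter so a rising signal means less miR-21 action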
#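 Using DMEM plus 10% FBS, HeLa miR-21-FLuc cells are incubated with test compounds (final up to about 40uM) for 48 hours; firefly luciferase signal is then imaged following reagent-mediated lysis.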
# Rango complex inh: qHTS Assay for Inhibitors of Rango (Ran-regulated importin-beta cargo) - Importin beta complex formation | Potency, µM (top dose mostly 92.2 µM), for the others: top-dose inhibition of complex formation | Importin subunit beta-1 (Homo sapiens), Q14974 | AID 540263, 2011 | 0.031% of 340,000 active | Rango CFP/YFP FRET sensor + importin beta, 45 min; active = rising FRET ratio curve, often small or poorly fitted; inconclusive = mostly compound fluorescence or quenching in the first reads; inactive = flat curves in all reads;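 note: potency is the fitted concentration of half-maximal effect; 0% = DMSO wells and 100% = buffer wells lacking importin beta; nearly all actives have a fitted effect of over 15% in size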
# Target sequence (Q14974 whole entry, looked up): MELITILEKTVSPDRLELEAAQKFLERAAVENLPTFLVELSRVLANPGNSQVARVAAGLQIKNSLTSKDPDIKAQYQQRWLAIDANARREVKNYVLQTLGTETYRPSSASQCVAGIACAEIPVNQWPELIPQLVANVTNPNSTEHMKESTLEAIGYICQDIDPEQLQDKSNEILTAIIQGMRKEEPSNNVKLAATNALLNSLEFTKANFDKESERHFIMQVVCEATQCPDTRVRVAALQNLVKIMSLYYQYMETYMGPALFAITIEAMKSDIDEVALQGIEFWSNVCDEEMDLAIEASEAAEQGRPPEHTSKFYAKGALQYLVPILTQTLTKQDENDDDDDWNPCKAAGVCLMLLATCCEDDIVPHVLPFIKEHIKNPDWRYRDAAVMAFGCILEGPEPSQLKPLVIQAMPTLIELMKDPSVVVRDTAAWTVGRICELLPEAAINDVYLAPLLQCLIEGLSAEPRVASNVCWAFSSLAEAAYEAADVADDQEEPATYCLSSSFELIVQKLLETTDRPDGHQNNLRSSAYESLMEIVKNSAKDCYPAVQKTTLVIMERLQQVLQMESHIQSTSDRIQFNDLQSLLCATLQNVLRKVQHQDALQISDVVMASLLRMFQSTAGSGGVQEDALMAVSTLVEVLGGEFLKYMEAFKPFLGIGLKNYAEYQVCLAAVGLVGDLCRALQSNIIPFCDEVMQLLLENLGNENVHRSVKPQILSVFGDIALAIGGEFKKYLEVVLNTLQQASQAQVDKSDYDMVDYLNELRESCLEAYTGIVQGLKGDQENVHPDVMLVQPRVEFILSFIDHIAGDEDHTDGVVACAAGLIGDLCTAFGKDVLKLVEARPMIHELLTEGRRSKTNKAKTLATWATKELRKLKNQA
#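 Inhibition scored from the CFP 486 nm/YFP 530 nm FRET ratio 45 min after adding 0.125 microM importin beta to 50 nM Rango biosensor preincubated 5 min with compound (room temperature, PBS with DTT, Tween-20, BSA). No-importin wells as positive control.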
# GLA inh pH 4.5: qHTS Assay for Inhibitors of Human alpha-Galactosidase at pH 4.5; Alpha-galactosidase A (Homo sapiens), P06280; purified enzyme, 4-MU-alpha-Gal fluorescence, pH 4.5; activity change, negative = inhibition, % at 105 µM; 230,000 tested, under 10 active; AID 1467, 2008; inconclusive = small, poorly fitted or top-dose-only inhibition, or a rising curve; inactive = flat fitted curve, though single readings scatter; no compound was filed as active;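 note: 0% = full activity with enzyme and -100% = basal without enzyme; dose as in the result columns while the protocol names 77 µM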
# Numbers without * were called inactive; ? = inconclusive; . = no result given; & = joins results of further samples; [ ] = another dose, or the depositor's remark.
mol	Rango release inh	miR-21 reporter	Rango complex inh	GLA inh pH 4.5
COCCC(=O)N1CCCC(N2CCN(c3ccc(F)cc3)CC2)C1 (stereo not given)	-7%	0%	0.5%	.
Cc1nn(-c2ccccc2)nc1C(=O)Nc1ccc2[nH]ncc2c1	-14%	-2%	-2.0%	?
CCCc1cc(C(=O)NCc2ccco2)no1	-4%	-39%	-0.4%	9
CC(=O)NNc1[nH]c2c(c(=O)c1[N+](=O)[O-])c(=O)n(C)c(=O)n2C	?	-1%	-0.8%	3
O=C(CNCc1ccccc1)Nc1ccc(Oc2ccccc2)cc1	19%	13%	0.7%	-3
O=C(Nc1ccc2c(c1)C(=O)OC2)Nc1cccc2ccccc12	-6%	2%	9.1%	3
CCCN(CC1CC1)C(=O)CSc1nnc(-c2ccco2)n1N	.	3%	.	7
CCOC(=O)c1c(NC(=S)NC(=O)c2cnn(CC)c2)sc2c1CCC(C)C2 (stereo not given)	-1%	-2%	3.6%	4
Cc1nn(C)c(C)c1S(=O)(=O)NCCc1ccc(Cl)cc1	-17%	-8%	-0.1%	.
Cc1cccnc1NC(=S)NCc1ccco1	-13%	-9%	-0.3%	?
CCCCCCn1c(SCCN2CCOCC2)nc2c1c(=O)[nH]c(=O)n2C	-5%	0%	-4.5%	8
C=CCn1c(=N)c(C#N)cc2c(=O)n3ccccc3nc21	?	-2%	?	-8
Cc1ccc(-c2csc(/C(C#N)=C/Nc3ccc4c(c3)OCCO4)n2)cc1	-7%	-6%	-4.7%	4
Oc1ccccc1-c1cncn1Cc1ccccc1	11%	-7%	0.8%	.
COCCCNC(=O)c1ccc2c(c1)nc(C)n2-c1cccc(C)c1	-3%	-11%&11%	1.1%	.
O=C(CSc1nnc2ccccn12)NC(=O)c1ccccc1Cl	12%	.	-2.6%	.
COc1ccc(C(=O)c2sc(Nc3ccc(NC(C)=O)cc3)nc2C)cc1	-23%	14%	?	.
CC(C)(C)C(=O)Nc1cc2c3c(c1)CCC(=O)N3CCC2	0%	1%	0.2%	.
NS(=O)(=O)c1ccc(CCNC(=O)c2ccc3nc4ccc(Cl)cc4c(=O)n3c2)cc1	-16%	-1%	?	8
Cc1ccc(N2C(=O)CC(NCC3CCCO3)C2=O)cc1 (stereo not given)	27%	-2%	-5.4%	6
O=C(Nc1nc(-c2ccc(S(=O)(=O)N3CCCCCC3)cc2)cs1)c1ccccc1	-2%	27%	-2.8%	-9
CCN(c1ccccc1)S(=O)(=O)c1ccc(Cl)c(C(=O)N(CC2CCCO2)C2CCS(=O)(=O)C2)c1 (stereo not given)	-4%	-8%	-2.2%	3
COc1ccc(NC(=O)Cc2cccs2)c(OC)c1	0%	-21%	0.1%	10
COc1ccccc1N(C(=O)c1snc(C(N)=O)c1N)C(C(=O)NC1CCCC1)c1ccc(N(C)C)cc1 (stereo not given)	14%	9%	0.1%	.
CC(=O)c1cccc(NC(=O)c2ccc3ccccc3c2)c1	5%	-29%	4.4%	.
Cc1c(C(=O)Nc2cccc(N(C)S(C)(=O)=O)c2)cccc1[N+](=O)[O-]	8%	-1%	-1.4%	3
C=CCN=C1CC(C)(C)CC(=O)/C1=C(/O)CCC(=O)OC	-1%	-4%	1.0%	-6
O=C(Nc1cc(C(F)(F)F)ccc1-n1cncn1)C1CC1	-1%	.	-1.0%	.
CNC(=O)CSCc1cnn(-c2ccccc2)c1-n1cccc1	7%	3%	2.0%	1
CCN1CCN(CC(=O)Nc2ccc(C)cc2C)C(=O)C1=O	-14%	-6%	1.8%	-5

# Looked up above:
# O=C(Nc1nc(-c2ccc(S(=O)(=O)N3CCCCCC3)cc2)cs1)c1ccccc1 in GLA inh pH 4.5 has -9
# COc1ccc(C(=O)c2sc(Nc3ccc(NC(C)=O)cc3)nc2C)cc1 in miR-21 reporter has 14%
# COc1ccccc1N(C(=O)c1snc(C(N)=O)c1N)C(C(=O)NC1CCCC1)c1ccc(N(C)C)cc1 (stereo not given) in miR-21 reporter has 9%

# The results go on.
mol	Rango release inh	miR-21 reporter	Rango complex inh	GLA inh pH 4.5
O=S(=O)(c1ccc(-c2csc(-c3cccnc3)n2)cc1)N1CCOCC1	32%	-6%	0.3%	5[21.1 µM]
CC1CCCC(NC(=O)COC(=O)c2cccc(S(=O)(=O)N3CCCCC3)c2)C1C (stereo not given)	11%	.	0.9%	.
CCOc1ccccc1NC(=O)CCc1nnc2ccc(N3CCC4(CC3)OCCO4)nn12	0%	-2%	1.8%	.
CCCCNC(=S)Nc1cccc(S(=O)(=O)NC2=NCCC2)c1	-1%	.	-0.2%	.
COc1ccccc1NC(=O)c1ccc(C(=O)c2ccccc2)o1	0%	-30%	-4.5%	-6
Cc1ccc(OCC(=O)N2CCN(c3ccc([N+](=O)[O-])c(N4CCOCC4)c3)CC2)cc1	10%	-3%	0.2%	3
CC(=O)C(Sc1ccc2nnc(-c3ccncc3)n2n1)C(C)=O	-6%	12%	2.9%	7
O=C(NC1CCN(S(=O)(=O)c2cccc([N+](=O)[O-])c2)CC1)C1CCCCC1	-8%	1%	3.6%	.
CCOC(=O)C1CCN(C(=O)CC2(CC(=O)O)CCCC2)CC1	0%	-3%	0.6%	.
COc1ccc(CCNC(=O)CSc2nc(C)nc3c2oc2ccccc23)cc1OC	-1%	4%	5.1%	-11
CC(=O)Nc1ccc(NC(=O)c2c(C)nn(-c3ccccc3)c2Cl)cc1C	?	-1%	-1.2%	2
O=C(NN=Cc1ccccc1O)C(O)c1ccccc1 (stereo not given)	-26%	.	-4.4%	.
C=CCN(c1ccccc1)S(=O)(=O)c1cccc(C(=O)Nc2nnc(SCC)s2)c1	3%	0%	-0.3%	1
CCOC(=O)C[C@H]1c2ccccc2S(=O)(=O)N1Cc1cc(OC)c(OC)c(OC)c1	4%	.	4.7%	.
COc1ccc(NC(=O)Cn2cnc3c(cnn3-c3ccc(C)c(C)c3)c2=O)c(OC)c1	3%	1%	-2.8%	0
Cc1oc2ccc(OCC(N)=O)cc2c1C(=O)OC(C)C	1%	-11%	-1.5%	2
CCC(=O)Nc1ccc(Cl)c(NC(=S)NC(=O)COc2ccc(Cl)cc2)c1	32%	-1%	-5.3%	7
CCOc1ccc(CC(=O)NNC(=S)NC)cc1	17%	-4%	1.1%	0
C#CCOCCOCCOCCNc1nc(N2CCOCC2)nc(N2CCN(C(=O)[C@H](CCCCN)n3cc(CN)nn3)CC2)n1	1%	.	8.1%	.
Cc1cccc(C)c1NC(=O)Cn1cc(C=O)c2ccccc21	-10%	1%	1.5%	.
NC(=O)c1cn(-c2ccccc2)nc1-c1cc2ccccc2oc1=O	6%	0%	?	-12
COc1cccc(COC(=O)c2ccc3c(c2)NC(=O)C(C)S3)c1OC (stereo not given)	-3%	.	-0.4%	.
O=C(NCC1COCCO1)c1cc(COc2c(F)cccc2F)on1 (stereo not given)	10%	-14%	-1.7%	.
CCSC1=C(C#N)C(CC(C)C)C2=C(CCCC2=O)N1 (stereo not given)	-11%	3%	?	4
O=C(OCC(=O)c1cccc2ccccc12)c1ccc(CO)cc1	2%	-47%	-0.8%	.
CCOc1cc(CN2CCN(Cc3ccc(C)o3)C(CCO)C2)ccc1OC (stereo not given)	18%	-7%	-0.8%	5
C[C@H](NC(=O)C1CC(=O)N(c2ccc(F)cc2)C1)C(=O)N1CCCCC1 (stereo not given in full)	-8%	0%	-1.3%	.
COc1ccc(NC(=O)CN(C)C(=O)/C=C/c2ccc(OCc3ccccc3)cc2)cc1	-16%	0%	-4.4%	.
CCCCC(=O)Nc1nnc(SCC(=O)NC2CCCC2)s1	-8%	-4%	-1.3%	-7
Cc1ccc(NC(=O)NCCSc2ccc(C)cc2)cc1	11%	-7%	-5.6%	0
CCCNC(=O)CCC(NS(=O)(=O)c1ccc(C)cc1)C(=O)NCCC (stereo not given)	-14%	-6%	2.0%	-6
CCc1ccc(N(CC(=O)Nc2nc3ccc(C)cc3s2)S(=O)(=O)c2c(C)noc2C)cc1	4%	10%	-3.5%	-7
O=C(Nc1ccc(-c2csc(Nc3ccc(Cl)cc3)n2)cc1)c1cc([N+](=O)[O-])cc(C(F)(F)F)c1	0%	2%	-0.1%	0
O=C1CCC(C(=O)OC(C(=O)Nc2ccc([N+](=O)[O-])cc2Br)c2ccccc2)=NN1 (stereo not given)	-1%	.	-0.1%	.
O=C(NCCC(=O)N1CCN(Cc2c(F)cccc2Cl)CC1)c1ccc(Cl)cc1	4%	.	-0.5%	.
Cc1nn(-c2ccccc2)c(C)c1/C=C/C(=O)OCC(=O)Nc1ccc(C(N)=O)cc1	15%	.	-1.1%	.
Cc1cc2c(cc1S(=O)(=O)N(C)c1ccccc1)NC(=O)CO2	?	8%	3.7%	4
O=C(CN1C(=O)NC2(CCc3ccccc32)C1=O)c1ccc2c(c1)OCCO2 (stereo not given)	-9%	-15%	-4.6%	-7
CCOC(=O)C1CCN(C(=O)COc2ccc(Cl)cc2)CC1	-6%	2%	-0.3%	10
Cc1cccc(N(C)S(=O)(=O)c2c[nH]c3ccc([N+](=O)[O-])cc23)c1	0%	11%	-2.2%	.
O=C(Nc1ccccc1Cl)NC1(C(=O)NCc2cccnc2)CCCCC1	-9%	-4%	-2.1%	.
CC(=O)Nc1ccc(S(=O)(=O)N2CCN(C(=O)c3cccnc3)CC2)cc1	-3%	0%	-2.5%	-3
COc1cccc(NC(=O)N2CCC(NC(=O)c3ccco3)CC2)c1	-5%	1%	2.6%	.
COc1ccc(C2NC(=O)NC(C)=C2C(=O)OCc2ccc3c(c2)OCO3)cc1OC (stereo not given)	-3%	1%	3.3%	0
O=C(O)Cc1ccc(NC(=O)Nc2cccc(Cl)c2)cc1	-19%	-2%	?	-10
O=C(O)c1cc(-c2ccc3c(c2)OCO3)nc2ccc(Cl)cc12	2%	-21%	0.9%	.
COC(=O)[C@@H]1C[C@@]2(O)[C@@H](O)[C@@H](O)[C@@H](O)C[C@H]2N1Cc1ccc(Cl)cc1	-6%	6%	0.3%	-7&1
CCCNC(=O)CSCc1nc(-c2ccc(SC)cc2)oc1C	-3%	10%	-0.3%	-1
COc1cccc(-n2nnc3c(=O)n(Cc4c(F)cccc4Cl)cnc32)c1	1%	-1%	2.2%	-2
COc1ccc(-c2nn(CCC#N)cc2C(=O)Nc2cccc(C(=O)O)c2)cc1[N+](=O)[O-]	-2%	-3%	-1.4%	.
CC(=O)Nc1cccc(NC(=O)COC(=O)C2CC3CCCC(C2)C3=O)c1 (stereo not given)	7%	-4%	-1.8%	.
O=C(Nc1ccc(NC(=O)C23CC4CC(CC(C4)C2)C3)cc1)c1cc(F)c(F)cc1Cl	-3%	-4%	-2.5%	0
COc1cc(OC)c(-c2nnc(-c3ccc(OC)c(OC)c3OC)o2)cc1OC	10%	-15%	-1.4%	5
O=C(O)CC12CC3CC(C1)CC(n1ncc(NCc4ccc(F)cc4)c(Cl)c1=O)(C3)C2	-9%	-3%	2.6%	-4
COC(=O)C1=C(C)NC(=O)C1(NC(=O)c1cccnc1)C(F)(F)F (stereo not given)	4%	-3%	2.7%	-1
CC1CCCC(NC(=O)COC(=O)c2ccc(N(C)C)cc2)C1C (stereo not given)	1%	-1%	?	5
O=C(NC(Cc1c[nH]c2ccccc12)c1nnc2n1CCCCC2)c1cccs1 (stereo not given)	7%	-1%	2.0%	-2
CCc1cccc2c(C(=O)COC(=O)c3ccc([N+](=O)[O-])s3)c[nH]c12	-2%	-2%	0.9%	-8

# Rewritten with two lines to a compound: 2 of the compounds above.
# Value order – Rango release inh	miR-21 reporter	Rango complex inh	GLA inh pH 4.5
O=C(O)CC12CC3CC(C1)CC(n1ncc(NCc4ccc(F)cc4)c(Cl)c1=O)(C3)C2
→ -9%	-3%	2.6%	-4
CCCNC(=O)CSCc1nc(-c2ccc(SC)cc2)oc1C
→ -3%	10%	-0.3%	-1

# A portion of the library; the hit share may differ from the screen's.
